Screening results as filed in PubChem BioAssay.
CBX7 AlphaScr: CBX7 chromodomain binding inhibitors, primary screen, biochemical, AlphaScreen; AID 1224903, 2016; Chromobox protein homolog 7 (Homo sapiens), O95931; normalised signal (fraction of DMSO) (test concentration not listed); AlphaScreen His6-CBX7 / biotin-H3K27me3 peptide binding; hits give low values; hit rate 1.1% among 66,000; in the data active = normalised signal below about 0.5;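 also: 100 nL library stock added to about 20 µL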
Target sequence (O95931 whole entry, looked up): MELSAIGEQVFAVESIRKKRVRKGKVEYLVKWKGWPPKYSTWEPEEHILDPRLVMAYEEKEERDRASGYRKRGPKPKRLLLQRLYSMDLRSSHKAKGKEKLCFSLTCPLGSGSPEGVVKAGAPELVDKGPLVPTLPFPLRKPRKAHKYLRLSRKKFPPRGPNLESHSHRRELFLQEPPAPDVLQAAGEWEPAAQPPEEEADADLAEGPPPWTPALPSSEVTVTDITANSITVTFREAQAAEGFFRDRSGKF
CBX7 AlphaScr z-score: recorded beside CBX7 AlphaScr, whose call it bears; z-score; measured here: z-score of CBX7 signal; some inactives read as strong as hits; reference of the scale not given here;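 same signal on another scale; lower means less binding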
Active calls of the source: *; & = joins results of further samples. Only part of the results is shown (hit frequency here may not be typical).

No.	SMILES	CBX7 AlphaScr	CBX7 AlphaScr z-score
1	Cc1nc2ccccc2n1CCOc1ccc(Cl)cc1	1.02	0.708
2	COc1ccccc1-c1cc(=O)n(CC(=O)NCc2ccc(F)cc2)c2c1CCCC2	1.06	0.901
3	COc1ccccc1NCc1nc2ccccc2n1CCOc1ccccc1Cl	0.749	-3.02
4	COc1ccc2oc(C)c(C(O)c3cc4ccccc4o3)c2c1 (stereo not drawn)	1.04	1.57
5	COc1ccc(-c2nc3ccccc3o2)cc1NC(=O)COc1ccccc1	1.04	0.0396
6	CCn1c(SCC(=O)NCc2ccc3c(c2)OCO3)nnc1-c1c[nH]c2ccccc12	1.17	1.09
7	COc1ccc(-c2[nH]c(-c3ccc(C)cc3)nc2SCC(=O)Nc2ccc3c(c2)OCO3)cc1	0.951	-2.32
8	COc1ccccc1-n1cc(C(=O)NCC(=O)Nc2ccc(F)cc2)c2ccccc2c1=O	1.04	0.483
9	CCNS(=O)(=O)c1cc(-c2nnc(Nc3ccc(F)cc3)c3ccccc23)ccc1C	0.895	-1.18
10	COc1cccc(CN2C(=O)c3ccccc3Sc3ccc(C(=O)NCc4ccccc4Cl)cc32)c1	0.781	-3.36
11	CCCCNC(=O)CCC(=O)Nc1ccc2nc(N3CCN(C)CC3)cc(C)c2c1	1.07	1.24
12	Cc1ccc(NC(=O)Cn2cnc3sc(C(=O)N4CCC(C)CC4)c(C)c3c2=O)cc1Cl	0.975	-0.672
13	CCOC(=O)c1sc2nc(Cc3ccccc3)nc(Nc3ccccc3)c2c1C	1.03	0.0303
14	Cc1ccccc1Cn1nc(C)c(NC(=O)c2cc(-c3ccc(Cl)cc3)on2)c1C	1.02	0.151
15	Cc1ccc(NC(=O)CSc2nccn2-c2cccc(C)c2C)c(C)c1	0.823	-0.177
16	Cc1ccc(-c2n[nH]c3c2C(c2ccc(C)cc2)N(c2ccc(F)cc2)C3=O)cc1 (stereo not drawn)	0.827	-0.351
17	Cc1cccc(-n2ccnc2SCC(=O)Nc2nccs2)c1C	0.9	-0.0999
18	CC(C)Cc1csc(NC(=O)C(C)C)c1C(=O)O	1.09	1.67
19	CC(=O)N1c2ccc(S(=O)(=O)Nc3ccc(Br)cc3C)cc2CC1C (stereo not drawn)	1.04	0.168
20	COc1ccc(CSc2nnc(-c3ccc(OC)cc3)o2)cc1	0.952	-0.75
21	CC(=O)N1CCc2cc(S(=O)(=O)NC3CCCCC3C)ccc21 (stereo not drawn)	1.14	1.47
22	CC(=O)N1CCc2cc(S(=O)(=O)N3CCN(c4ccccc4Cl)CC3)ccc21	0.93	-2.29
23	Cc1cc(C)c(C#N)c(Oc2cccc(NC(=O)COc3ccc(Cl)cc3Cl)c2)n1	1.01	0.0146
24	CCCCNC(=O)CSCc1nc(-c2ccc(C)cc2)oc1C	0.937	-1.19
25	CCOc1ccc(C(=O)Nc2c3c(nn2-c2ccccc2)CSC3)cc1	0.963	-0.847
26	O=C1c2ccncc2C(=O)N1Cc1ccc(F)cc1	1.14	1.75
27	CCc1ccc(NC(=O)CSc2nccn2-c2cc(C)cc(C)c2)cc1	0.954	-0.819
28	COc1ccc(NC(=O)c2cc3c(s2)-c2c(C)cccc2OC3)c(OC)c1	1.16	5.52
29	CCOC(=O)N1CCC(NC(=O)c2cc3sccc3n2Cc2ccc(C)cc2)CC1	0.973	-0.753
30	Cc1cc(C)c2oc(-c3cccc(NC(=O)c4cccc(Cl)c4)c3)nc2c1	1.12	2.36

Profiles from above. Order of screens: CBX7 AlphaScr | CBX7 AlphaScr z-score
Cc1ccc(NC(=O)CSc2nccn2-c2cccc(C)c2C)c(C)c1 reads 0.823 | -0.177
CCCCNC(=O)CSCc1nc(-c2ccc(C)cc2)oc1C reads 0.937 | -1.19
COc1ccc(-c2nc3ccccc3o2)cc1NC(=O)COc1ccccc1 reads 1.04 | 0.0396

As entered above.
CCOc1ccc(C(=O)Nc2c3c(nn2-c2ccccc2)CSC3)cc1 @ CBX7 AlphaScr z-score = -0.847
CC(=O)N1CCc2cc(S(=O)(=O)NC3CCCCC3C)ccc21 (stereo not drawn) @ CBX7 AlphaScr = 1.14
CCOC(=O)c1sc2nc(Cc3ccccc3)nc(Nc3ccccc3)c2c1C @ CBX7 AlphaScr z-score = 0.0303
Cc1nc2ccccc2n1CCOc1ccc(Cl)cc1 @ CBX7 AlphaScr z-score = 0.708
Cc1ccc(-c2n[nH]c3c2C(c2ccc(C)cc2)N(c2ccc(F)cc2)C3=O)cc1 (stereo not drawn) @ CBX7 AlphaScr = 0.827
COc1ccc(-c2[nH]c(-c3ccc(C)cc3)nc2SCC(=O)Nc2ccc3c(c2)OCO3)cc1 @ CBX7 AlphaScr = 0.951
COc1ccc(CSc2nnc(-c3ccc(OC)cc3)o2)cc1 @ CBX7 AlphaScr = 0.952

Further records:
No.	SMILES	CBX7 AlphaScr	CBX7 AlphaScr z-score
31	O=C(NCCC1=CCCCC1)C1CCN(c2nc3ccc(Br)cc3s2)CC1	1.15	3.55
32	COCCCNC(=O)c1nc(-c2cccc(C)c2)oc1C	1.11	0.891
33	O=C(NCc1ccccc1)c1cc(=O)[nH]c2ccc(S(=O)(=O)N3CCOCC3)cc12	1.02	0.21
34	Cc1ccc2c(c1Br)C(O)(CC(=O)c1ccc3c(c1)OCO3)C(=O)N2 (stereo not drawn)	1.02	1
35	Cc1c(C(=O)N2CCN(c3ccccc3F)CC2)sc2ncnc(N3CCCCC3)c12	1.03	0.045
36	CCOc1ccc(NC(=O)CNC(=O)c2nn(-c3ccc(OC)cc3)c(=O)c3ccccc23)cc1	0.975	-0.508
37	CCC(C)NC(=O)c1ccc2c(c1)N(Cc1cccc(Cl)c1)C(=O)c1ccccc1S2=O (stereo not drawn)	0.923	-0.484
38	COc1ccc(OC)c(CNC(=O)CN2C(=O)CSc3ccccc32)c1	1.01	0.271
39	Oc1ccccc1-c1nc2ncccn2c1Nc1cccc(C(F)(F)F)c1	1.11	2.12
40	CCOC(=O)c1c(C)nc(Nc2nc3ccccc3o2)nc1CSc1ccc(C)cc1	1.06	2.1
41	Cc1oc(-c2cccc(Br)c2)nc1CN1CCC(C(=O)NCC2CCCO2)CC1 (stereo not drawn)	0.981	-0.382
42	COC(=O)c1c[nH]n2c(NC3CCCCCC3)c(-c3ccc(Cl)cc3)nc12	0.567	-8.55
43	O=C(CN1C(=O)COc2ccc(S(=O)(=O)N3CCOCC3)cc21)NCCc1c[nH]c2ccccc12	1.02	0.745
44	CCCOc1ccc(C(=O)Nc2ccc3oc(-c4ccc(C)cc4C)nc3c2)cc1	1.06	3.09
45	CCCOc1ccc(N2C(=O)CC(N3CCN(Cc4ccc(Cl)cc4)CC3)C2=O)cc1 (stereo not drawn)	1.02	1.11
46	CC(C)(C)c1ccc(-c2nc(-c3ccncc3)no2)cc1	1.08	2.61
47	CCN(CC)CCNC(=O)c1ccc(NC2=NC3CS(=O)(=O)CC3S2)cc1 (stereo not drawn)	1.14	2.7
48	Cc1ccc(C)c(CN2C(=O)CSc3ccc(C(=O)NCc4ccccc4Cl)cc32)c1	0.995	-0.102
49	O=C(c1cc(-c2ccc(O)cc2)on1)N1CCN(Cc2ccccc2)CC1	1.02	0.771
50	O=C(NCCCN1CCCCCC1)c1cc(=O)[nH]c2ccc(S(=O)(=O)N3CCCCC3)cc12	1.04	1.41
51	COc1ccc(C)cc1NC(=O)Cn1cnc2sc(C)c(C)c2c1=O	1.06	0.403
52	CC1CCN(S(=O)(=O)c2cn(CC(=O)N3CCCCCC3)c(=O)c3ccccc23)CC1	1.18	1.42
53	O=C(NC1CCCC1)C(c1ccc(Cl)cc1)N1CCN(c2ccccc2)CC1 (stereo not drawn)	0.985	-0.148
54	CCOc1ccc(-c2cn(-c3ccc(Br)cc3)c(=O)[nH]2)cc1	0.901	-1.27
55	COc1ccc(-c2nc(C(=O)NCCN3CCCC3)c(C)o2)cc1OC	1.02	0.692
56	CNC(=O)COc1ccc(Nc2nnc(-c3ccc(C)c(S(=O)(=O)N(C)C)c3)c3ccccc23)cc1	0.702	-5.6
57	Cc1ccc(CNC(=O)C2CCCN(S(=O)(=O)c3cccs3)C2)cc1 (stereo not drawn)	1	0.00182
58	COCCNC(=O)CCN1N=C(c2ccccc2)CCC1=O	1.14	1.91
59	COC(=O)COc1ccc(NC(=O)Cn2nc(-c3ccccc3)c3ccccc3c2=O)cc1	1.12	1.19
60	CCCOc1ccc(N2C(=O)CC(N3CCN(CCO)CC3)C2=O)cc1 (stereo not drawn)	0.831&0.995	-2.67&-0.115
61	CCc1cccc(NC(=O)CCc2nc(-c3ccc(C)cc3)no2)c1	1.03	1.2
62	CC1CCCN(S(=O)(=O)c2cccc(-c3cn4cccnc4n3)c2)C1 (stereo not drawn)	1.01	0.442
63	CC1=Nc2cc(C(=O)O)ccc2Sc2ccc(Cl)cc21	0.876	-1.33
64	Cc1nc2c(-c3ccccc3)c(C)nn2c(C)c1CCC(=O)NC1CCCCC1	1.13	1.45
65	Cc1n[nH]c(C)c1CCCCCOc1ccccc1C(C)C	0.97	-0.588
66	Cc1ccc(N2C(=O)CC(N3CCCCCC3)C2=O)cc1 (stereo not drawn)	1.28	2.38
67	COc1ccc(OC)c(NC(=O)c2nn(-c3ccc(OC)cc3OC)c(=O)c3ccccc23)c1	0.808	-5.12
68	O=C1CC(c2cc(Br)cs2)c2cc3c(cc2N1)OCO3 (stereo not drawn)	0.767	-2.99
69	Cc1ccc(S(=O)(=O)Nc2ccc3nc(-c4ccccc4)oc3c2)cc1	0.972	-0.746
70	COc1nc2nonc2nc1Nc1ccc(C)cc1	0.872	-1.79
71	Cn1c(C(=O)N2CCC(C(=O)NCCCN3CCCC3=O)CC2)cc2sccc21	0.976	-0.438
72	CC(C)(C)c1csc(NCc2ccccc2O)n1	0.956	-1.24
73	O=C(NCc1ccc(F)cc1)c1ccc2c(c1)N(Cc1ccccc1F)C(=O)c1ccccc1S2	1.01	0.209
74	O=C(NC1CCCCC1)c1c[nH]c2ccc(S(=O)(=O)Nc3cccc(C(F)(F)F)c3)cc2c1=O	0.687	-5.89
75	CCCCCn1c(CNC(=O)c2ccc(F)cc2)nc2ccccc21	0.803	-2.27
76	CC(O)c1nc2ccccc2n1C/C=C/c1ccccc1 (stereo not drawn)	0.968	-1.46
77	CN(C)S(=O)(=O)c1ccc(-c2csc(-c3cccnc3)n2)cc1	0.783	-2.57
78	Cc1ccc(-c2nc(-c3ccccn3)no2)c(Cl)c1	0.881	-1.18
79	O=S(=O)(c1ccc(-c2csc(Nc3ccc(F)cc3)n2)cc1)N1CCCCC1	0.903	-0.69
80	CCN(CC)CCCC(C)Nc1nc2ccccc2n1C (stereo not drawn)	1.07	1.99
81	COc1ccc(/C=C\c2onc(C)c2S(=O)(=O)N2CCC(C(=O)NC3CCCCC3)CC2)cc1	0.913	-0.181
82	CC(C)Sc1oc(-c2cccs2)nc1S(=O)(=O)c1ccc(F)cc1	1.08	0.141
83	CCOc1ccc(NC(=O)Cn2cnc3c(nnn3Cc3ccc(C)cc3)c2=O)cc1	0.891	-1.78
84	CC(=O)N1CCc2cc(S(=O)(=O)NCCC(=O)N3CCCCCC3)ccc21	1.04	0.801
85	CCN1C(=O)CSc2ccc(C(=O)NCc3ccccc3)cc21	1.03	0.853
86	CCN1CCN(CCNC(=O)Nc2ccccc2C)CC1	1.12	2.41
87	Cc1oc(-c2cccc(Cl)c2)nc1CS(=O)(=O)CC(=O)NCCCOC(C)C	0.975	-1.23
88	COc1ccc(CNc2oc(COc3ccc(F)cc3)nc2C#N)cc1	0.524	-8.65
89	Cn1c(SCC(=O)Nc2cccc(C(F)(F)F)c2)nnc1-c1c[nH]c2ccccc12	0.912	-1.52
90	COc1ccc(NC(=O)Cn2cc(S(=O)(=O)c3ccccc3)c(=O)c3cc(Cl)ccc32)cc1	0.969	-1.03

Carrying on:
No.	SMILES	CBX7 AlphaScr	CBX7 AlphaScr z-score
91	O=C(CC1(O)C(=O)N(CCc2ccccc2)c2ccc(Cl)cc21)c1cccnc1 (stereo not drawn)	0.599	-0.532
92	CCN1CCN(C(=O)CN2C(=O)CCSc3ccccc32)CC1	1.05	0.989
93	Cc1cc2nc(Cc3ccc(F)c(F)c3)c(=O)[nH]c2cc1C	1.05	1.44
94	Cc1nc(C2COc3ccccc3O2)cs1 (stereo not drawn)	1.07	0.936
95	Cn1nc(-c2ccccc2F)c2cc(C(=O)N3CCOCC3)sc21	0.964	-0.585
96	O=S(=O)(Nc1ccc(Cl)c(C(F)(F)F)c1)c1cnc[nH]1	0.996	-0.145
97	Cc1nnn(C23CC4CC(CC(CC(=O)Nc5ccc(Br)cc5)(C4)C2)C3)n1	1.2	2.28
98	O=C(O)c1ccc2c(c1)NC(=O)C(CSCc1c(F)cccc1Cl)N2 (stereo not drawn)	1.44	9.45
99	O=C(COc1ccccc1)Nc1nnc(-c2ccccc2)s1	1.04	0.732
100	CC(=O)Nc1ccc(-c2cn3ccccc3n2)cc1	1.06	1.94
101	COc1ccccc1CN1CCN(Cc2ccc(OC)c(OC)c2OC)CC1	0.916	-1
102	O=C(NC1CCCC1)C1CCCN(S(=O)(=O)c2cccc3cccnc23)C1 (stereo not drawn)	1.08	0.857
103	Cc1cc(Nc2cccc(C(F)(F)F)c2)nc2cccc(O)c12	1.05	0.967
104	COc1ccc(CNC(=O)c2cnn3c(C)c4c(nc23)CCCC4)cc1	1.03	0.886
105	COc1cccc(-c2nc(CS(=O)(=O)CC(=O)NCCc3ccc(C)cc3)c(C)o2)c1	0.972	-0.133
106	Cc1ccccc1NCc1nc2ccccc2n1Cc1ccccc1	0.415*	-6.6*
